Menin MLL FP FL: displaces fluorescein MLL peptide from human menin. Fluorescence polarization, fluorescein-MLL peptide displacement from menin. FP activity change, % at 61.4 µM. 290,000 tested, under 10 active; inconclusive = falling polarisation curve, or a change in total fluorescence; inactive = total fluorescence flat and polarisation flat or rising; no compound was filed as active; the % refers to the polarisation; negative = inhibition;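 also: % of control where 0% means no effect; inhibitors lower the polarisation; unlabelled MLL peptide was the positive control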
Sfp inh: Sfp phosphopantetheinyl transferase inhibition | Q9F4F7 | Biochemical Sfp PPTase activity, qHTS | Potency, µM, for the others: max response, negative = inhibition, most hits filed as inhibitors | 310,000 compounds, 3.5% hits; active = well fitted inhibition curve with a large enough effect; inconclusive = small, poorly fitted or top-dose-only effect, or another doubt; inactive = no such curve, though single readings can be large or run the other way;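 also: the enzyme is Sfp with the accession as filed and its product quenches rhodamine fluorescence; potency is read from the fitted curve at half-maximal effect; 0% = enzyme reaction without inhibitor and -100% = no enzyme wells; top concentration of the series not given in the record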
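Fluorescence-quenching assay with 15 nM Sfp, 5 uM rhodamine-CoA and 12.5 uM BHQ-2-labelled ybbR peptide in pH 7.6 Hepes/MgCl2 buffer. Enzyme was pre-incubated with compound for 15 min at room temperature. Rate was taken from the 30-min fluorescence change (525/598 nm).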
gsp antag: antagonists of gsp mutant (McCune-Albright syndrome); Potency, µM (top dose mostly 76.9 µM), inactives show top-dose activity change, negative = inhibition, most hits filed as inhibitors; AID 624288; 340,000 compounds, 0.4% hits; gsp-mutant cells, cAMP HTRF, 30 min; control for the full effect not named in the record; active = falling curve of any shape with a large fitted effect; inconclusive = falling curve, mostly with a smaller effect; inactive = flat or rising curve; cell line not stated here;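 also: intracellular cAMP measured with PDE inhibitor Ro 20-1724 present during compound exposure; potency is read from the fitted curve at half-maximal effect; % is scaled to controls: 0 for no effect and ±100 for the full control effect; nearly all actives have a fitted effect of over 65% in size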
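Measurement of cellular cAMP by homogeneous time-resolved fluorescence following a 30 min compound exposure at 37C. The PDE inhibitor […] was present throughout; the assay buffer was DPBS with 0.05% BSA and 0.005% Tween 20.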
ClpP mod: qHTS Assay for Activators of ClpP; ATP-dependent Clp protease proteolytic subunit (Bacillus subtilis (strain 168)), P80244; Potency, µM (highest dose often 57.5 µM), inactives show at the top dose activity change, negative = active; AID 651965, 2013; 340,000 compounds, 1.9% hits; purified B. subtilis ClpP, FRET peptide cleavage, 20 min; active = well fitted falling curve with a large enough effect; inconclusive = small, poorly fitted or top-dose-only effect; inactive = no such curve, though single readings can be large or run the other way; also: potency is read from the fitted curve at half-maximal effect; the source files actives as falling curves though it sought activators and does not explain the sign; nearly all actives have a fitted effect of over 65% in size; many hits overshoot -100%
Target sequence (P80244 whole entry, looked up): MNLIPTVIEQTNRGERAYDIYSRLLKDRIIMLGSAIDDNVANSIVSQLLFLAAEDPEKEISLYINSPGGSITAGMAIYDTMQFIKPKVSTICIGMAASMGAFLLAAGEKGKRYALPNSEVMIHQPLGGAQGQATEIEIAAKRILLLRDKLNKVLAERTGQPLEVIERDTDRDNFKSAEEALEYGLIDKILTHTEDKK
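Purified B. subtilis ClpP, 10 microg/mL final in Tris/HCl pH8 with KCl, BSA, glycerol and Tween-20, cleaved an Abz/nitrotyrosine-quenched decapeptide. Fluorescence (ex 320, em 430) was read at 0 and 20 min at room temperature. Delta was normalized to 5.8 microM ADEP and DMSO/no-enzyme controls.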
gsp agonist: gsp mutant agonism. 340,000 compounds, 0.13% hits. Potency, µM (doses to about 76.9 µM), without a hit: at the highest dose activation (cAMP increase), most hits filed as activators. gsp mutant cells, cAMP HTRF, 30 min; control for the full effect not named in the record; active = well fitted activation curve with a large enough effect; inconclusive = small, poorly fitted or top-dose-only effect, or another doubt; inactive = no such curve, though single readings can be large or run the other way; cell line not stated here;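 also: phosphodiesterase inhibitor Ro 20-1724 added with compounds to block cAMP breakdown; potency is read from the fitted curve at half-maximal effect; nearly all actives have a fitted effect of over 60% in size; about a fifth of the inactives were tested at one dose only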
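Cells stably selected in G418 were plated at 2000/well, grown 16-24 hr, then given compounds in DMSO with the PDE inhibitor […] (300 uM solution added) for 30 min at 37C; cAMP was read by HTRF.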
TRPML1 inh: blocks the human TRPML1 channel; Q9GZU1; TRPML1-inducible cells, Ca2+ dye fluorescence, FDSS; hits give low values; inhibition of EC80 agonist-evoked calcium signal; activity change, negative = inhibition, % (no concentration beside the values); 390,000 compounds, 0.02% hits; AID 624415; in the data active means activity change below about -50%; inconclusive means about -30% to -50%; inactive means above about -30%;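 also: stimulus is agonist 54-4 at its EC80 concentration; % is scaled to controls: 0 for no effect and ±100 for the full control effect; compound concentration not given in the record; the text of the record puts the active cut at -80%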
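Tet-induced TRPML1-DL cells loaded with Ca8 no-wash calcium dye were read kinetically on FDSS. Compound addition was followed by EC80 agonist 54-4 (4 uM final); inhibition was read over 110 s.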
TRPV1 potentiator: potentiators of human vanilloid receptor 1 (TRPV1). 320,000 compounds, 0.02% hits. Q8NER1. TRPV1-expressing cells, Fluo-8 calcium influx, capsaicin EC20 potentiation; host cell line not named in the record; control for the full effect not named in the record. potentiation, % at 8.33 µM; active means potentiation above 80%; inconclusive means 30% to 80%; inactive means below 30%; also: 0% is about no effect
Target sequence (Q8NER1 whole entry, looked up): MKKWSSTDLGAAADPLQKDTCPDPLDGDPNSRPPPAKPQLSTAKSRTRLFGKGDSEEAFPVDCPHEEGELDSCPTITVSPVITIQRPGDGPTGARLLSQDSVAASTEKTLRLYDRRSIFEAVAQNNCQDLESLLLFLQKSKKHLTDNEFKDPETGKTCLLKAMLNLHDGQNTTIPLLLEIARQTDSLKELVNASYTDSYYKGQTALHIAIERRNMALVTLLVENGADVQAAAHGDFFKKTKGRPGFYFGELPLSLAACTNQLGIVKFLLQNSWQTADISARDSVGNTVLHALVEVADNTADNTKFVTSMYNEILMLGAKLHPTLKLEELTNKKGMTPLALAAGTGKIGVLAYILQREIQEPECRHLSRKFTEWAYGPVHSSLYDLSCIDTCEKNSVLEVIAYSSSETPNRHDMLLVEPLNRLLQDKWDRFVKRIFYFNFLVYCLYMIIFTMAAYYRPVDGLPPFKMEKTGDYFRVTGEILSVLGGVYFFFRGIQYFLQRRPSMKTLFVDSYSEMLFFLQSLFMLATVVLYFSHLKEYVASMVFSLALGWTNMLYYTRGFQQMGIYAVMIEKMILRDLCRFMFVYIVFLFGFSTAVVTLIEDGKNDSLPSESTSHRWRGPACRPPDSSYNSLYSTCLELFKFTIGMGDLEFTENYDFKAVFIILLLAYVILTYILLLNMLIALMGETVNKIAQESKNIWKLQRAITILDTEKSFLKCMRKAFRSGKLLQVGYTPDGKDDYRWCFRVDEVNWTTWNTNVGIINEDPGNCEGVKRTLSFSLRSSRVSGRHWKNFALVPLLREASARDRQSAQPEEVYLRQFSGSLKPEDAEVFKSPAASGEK
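Fluo-8 calcium influx in TRPV1-expressing cells, kinetic read (ex 480/em 520 nm). Compound added and read 3 min for agonist activity, followed by capsaicin at EC20 final and 2 min further read for enhancement.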
The depositor's hits bear a star; ? = inconclusive; · = no result given; & = joins results of further samples; [ ] = remark or other dose.

SMILES	Menin MLL FP FL	Sfp inh	gsp antag	ClpP mod	gsp agonist	TRPML1 inh	TRPV1 potentiator
c1ccc(CCN2CN=C(Nc3nc4ccccc4s3)NC2)cc1	-1.1	10%	-3%	-3.0%	4%	-2	19
Cc1cn(CC(C)C)c(=O)n(-c2ccccc2)c1=O	·	·	13%	·	-25%	-5	·
O=C(c1cc2nc(-c3cccs3)cc(C(F)(F)Cl)n2n1)N1CCCc2ccccc21	3.8	-2%	-3%	-2.2%	-9%	-6	5
O=C1N/C(=C/c2ccc(Br)cc2)C(O)=C1C=NCc1ccccc1	2.3	27%	-11%	-0.8%	?	27	-2
Cc1ccc(Oc2nc3ccccc3n3c(C)nnc23)cc1	-0.5	-13%	1%	?	28%	-5	-2
CC(=O)c1ccc(N2CCN(C(=O)c3n[nH]c4ccccc34)CC2)cc1	16	-7%	11µM*	·	-8%[15.4 µM]	-4	-7
CC(=O)c1ccc(C(=O)N2CCCC(C(=O)c3cc(F)ccc3F)C2)s1 (stereo not given)	-2.1	13%	7%	·	-2%	10	-3
COc1cc(C(=O)NCc2nnc(SCC(=O)N3CCC(C)CC3)o2)cc(OC)c1OC	2.8	11%	13%	-2.9%	-26%	3	-16
Cc1ccc(SC[C@H](Cc2ccccc2)N2CC[C@@H](NC(=O)OCc3ccccc3)CCC2=O)cc1	5.2	18%	·	5.7%	·	·	-8
COc1ccc(NC(=S)N2CCCC2)c(OC)c1	2.6	5%	6%	·	13%	20	?
CCC(C)(C)NC(=O)C(c1ccc(F)cc1)N(Cc1ccco1)C(=O)c1cnccn1 (stereo not given)	-0.1	-2%	-9%	0.0%	-85%[inhibitor]	-3	9
O=C(NCCN1CCCCC1)Nc1ccc(F)cc1F	1.5	23%	7%	·	-62%[inhibitor]	-4	15
Cc1ccc(C)c(OCC(=O)NCC(C)C)c1C	6.7	10%	-6%	2.0%	?	-12	-3
CCOc1ncccc1C(=O)OCC(=O)NC1CCCCC1	·	·	6%	0.3%	11%	2	·
CCCNC(=O)C(Cc1ccc(I)cc1)NC(=O)c1ccc(C#N)cc1 (stereo not given)	·	·	8%	0.1%	-11%	5	-11
COc1cc(CNCc2cccnc2)ccc1OCC(=O)NC1CCCCC1	-0.2	-17%	5%	·	-32%[15.4 µM]	-1	7
CC1CCC2C(=O)N(c3ccc(C(=O)NCc4ccccc4)cc3)C(=O)C2C1 (stereo not given)	-0.8	3%	6%	-2.4%	11%	-9	-11
O=C(O)CCCC(=O)Nc1ccc(N=Nc2ccccc2)cc1	-2.1	3%	-5%	3.1%	-37%[inhibitor]	-14	-21
COc1ccc(C(=O)Oc2ccc(N(C)S(=O)(=O)c3ccccc3)cc2)cc1[N+](=O)[O-]	-1.8	-6%	0%	·	-13%	74	2
CCCSc1nc2c(cnn2-c2ccccc2)c(=O)n1N	6.3	-1%	-14%	·	10%[15.4 µM]	12	-20
CC(C)N(Cc1nnc(-c2ccc(Cl)cc2)o1)C(=O)C1=COCCO1	·	·	2%	·	2%[15.4 µM]	0	-1
CC(C)NC(=O)CSc1nnc(-c2ccc3ncccc3c2)n1C	2.0	13%	6%	-0.9%	-7%	3	-2
O=C(N/N=C\c1ccc(Cl)s1)C1COc2ccccc2O1 (stereo not given)	7.9	-14%	?	-1.0%	-1%	-5	16
C#CCN(C[C@@H]1[C@@H](OC(=O)Nc2cccs2)[C@@H](OC(=O)Nc2cccs2)Cn2c(=O)n(CCCCCC)c(=O)n21)S(=O)(=O)c1ccc(C)cc1	·	·	·	-4.3%	3%	-3	·
O=C(c1ccc(CNS(=O)(=O)c2ccc(Br)cc2)cc1)N1CCCC1	4.4	6%	2%	-1.7%	8%	4	0
Next part
SMILES	Menin MLL FP FL	Sfp inh	gsp antag	ClpP mod	gsp agonist	TRPML1 inh	TRPV1 potentiator
CC(=O)c1ccccc1NC(=O)Cn1c(=O)cnc2ccccc21	6.5	7%	-7%	·	-7%[15.4 µM]	1	-11
COc1ccc(-c2nc(-n3c(C)c(C(C)=O)c(C(C)=O)c3C)sc2C)cc1OC	-1.1	2%	-6%	0.8%	-31%[inhibitor]	-1	-11
CN(C)S(=O)(=O)c1ccc(N2CCCC2)c(C(=O)Nc2ccc(Br)cc2F)c1	·	·	1%	-1.8%	-4%	13	-3
CCOC(=O)N1CCN(C/C(C)=C/c2ccccc2)CC1	2.1	-20%	6%	-0.7%	-17%	-18	-4
C#CCOCCOCCOCCNc1nc(N2CCN(C(=O)CCCCCCCCCCNC(=O)Cn3cc(C[C@@H](C)O)nn3)CC2)nc(N2CCN(C(=O)CCCCCCCCCCNC(=O)[C@H](CO)n3cc(CCCSC)nn3)CC2)n1	·	·	-4%	0.7%	-76%[inhibitor]	-1	-5
Cc1cc(Cl)ccc1OCC(=O)OCC(=O)NCCNC(=O)COC(=O)COc1ccc(Cl)cc1C	·	·	8%	-0.8%	-15%	10	·
O=C(CSC1=NCCS1)Nc1ccccc1F	3.9	-11%	-1%	0.1%	29%	12	26
O=C(COC(=O)C1CCCN1C(=O)c1cccs1)Nc1ccc2c(c1)OCO2 (stereo not given)	5.5	-7%	3%	-1.8%	11%	2	?
COc1cc(/C=C/C(=O)OCC(=O)Nc2c(C)n(C)n(-c3ccccc3)c2=O)ccc1O	·	8%	-1%	-24%	12%	7	1
NC(=O)c1[nH]cnc1N	-2.4	-5%&-1%	-4%&11%	-0.2%&-5.1%	-3%	-3&11	-14&6
COCc1c(C(=O)OCC(=O)N(C)C2CCS(=O)(=O)C2)oc2ccccc12 (stereo not given)	·	·	-3%	-26%	0%	9	4
CC(=O)c1cn(N2CCCCC2)c(=O)[nH]c1=O	-1.0	7%	3%	·	-35%[inhibitor]	6	5
COc1ccccc1N(CC(=O)Nc1ccc(C(F)(F)F)cc1)S(C)(=O)=O	-2.8	1%	4%	·	-14%[15.4 µM]	20	9
O=C(O)c1ccc(OCCOc2ccccc2)cc1	1.7	-8%	-3%	-0.6%	11%	23	?
CCOc1ccc(-c2nnc3ccc(SCC(=O)NCc4ccco4)nn23)cc1	2.7	-12%	2%	?	?	-5	·
O=C(NCCCCCCNC(=O)C1CCCC1)C1CCCC1	2.5	39%[activator]	0%	0.2%	-3%	8	9
CCC(C)(NC(=O)c1ccc2c(c1)OCO2)C(=O)NC1CCCCC1 (stereo not given)	-3.4	16%	-8%	·	-3%[15.4 µM]	2	16
O=C(CC1NCCNC1=O)Nc1ccc(Cl)c(Cl)c1 (stereo not given)	0.6	5%	11%	-16%	-34%[inhibitor]	-16	6
CCN(CC)S(=O)(=O)c1cc(C(=O)OCC(=O)Nc2cccc(Br)c2)ccc1F	5.9	18%	-13%	-4.3%	-55%[inhibitor]	-5	2
CCn1nc(C)c(NC(=O)Nc2cccc(Cl)c2Cl)c1C	2.9	-5%	6%	-3.5%	10%	0	1
Cc1ccc(NC(=O)COC(=O)c2cc(Cl)ccc2[N+](=O)[O-])c(C)c1	-0.6	-22%	-13%	-0.8%	6%	-11	3
O=C(c1cc2cc(Br)ccc2s1)N1CCOCC1	7.1	8%	11%	·	5%[15.4 µM]	5	-14
S=c1[nH]nc(CSCc2ccc(Cl)cc2Cl)n1-c1ccccc1	7.0	-7%	-15%	-1.6%	-10%	3	8
Cc1cccc(C(C)C)c1NC(=O)COC(=O)c1cccc(S(=O)(=O)N2CCc3ccccc3C2)c1	2.6	19%	11%	-0.1%	-7%[15.4 µM]	7	-4
O=C(N/N=C/C=C/c1ccccc1)c1ccccn1	0.0	-24%	-8%	·	20%	-5	-3

Structures shown so far that have an NH in an aromatic ring:
SMILES	Menin MLL FP FL	Sfp inh	gsp antag	ClpP mod	gsp agonist	TRPML1 inh	TRPV1 potentiator
CC(=O)c1ccc(N2CCN(C(=O)c3n[nH]c4ccccc34)CC2)cc1	16	-7%	11µM*	·	-8%[15.4 µM]	-4	-7
NC(=O)c1[nH]cnc1N	-2.4	-5%&-1%	-4%&11%	-0.2%&-5.1%	-3%	-3&11	-14&6
CC(=O)c1cn(N2CCCCC2)c(=O)[nH]c1=O	-1.0	7%	3%	·	-35%[inhibitor]	6	5
S=c1[nH]nc(CSCc2ccc(Cl)cc2Cl)n1-c1ccccc1	7.0	-7%	-15%	-1.6%	-10%	3	8

(further entries)
SMILES	Menin MLL FP FL	Sfp inh	gsp antag	ClpP mod	gsp agonist	TRPML1 inh	TRPV1 potentiator
O=C(c1ccc(C(F)(F)F)cc1)c1c[nH]c(C(=O)NCCCn2ccnc2)c1	1.9	19%	-6%	-1.5%	36%	13	-7
Cc1ccc2[nH]c(=O)c3cc(C(=O)NCCC(C)C)sc3c2c1	-3.7	10%	-11%	3.8%	40%	·	4
Fc1ccc(C(c2nnnn2C2CCCC2)N2CCN(Cc3ccncc3)CC2)cc1 (stereo not given)	-1.3	19%	4%	-1.8%	9%	30	-13
CC(=O)N1CCc2c(sc(NC(=O)c3ccc([N+](=O)[O-])o3)c2C#N)C1	8.6	10µM*	?	-5.2%	24%	1	-28
Cc1nn(C)c(C)c1C(=O)NN	-0.2	-5%	3%	-4.5%	2%	14	5
O=C(COc1ccc(F)cc1)NCCc1nc2ccccc2[nH]1	·	·	·	-0.9%	·	23	10
O=C(Nc1cc(-c2nc3ncccc3o2)ccc1Cl)c1cccs1	2.4	-13%	-18%	?	-2%[15.4 µM]	1	9
O=C(Cc1ccc(F)cc1)N[C@@H]1c2ccccc2CC[C@@H]1O	·	·	8%	1.3%	·	8	·
O=C(NC(=S)Nc1ccc(CN2CCOCC2)cc1)c1ccc([N+](=O)[O-])cc1Cl	2.0	-15%	?	·	-6%	-8	11

Compound activity deposited in PubChem by National Center for Advancing Translational Sciences (NCATS).

This is a random part of the collection. About 4.9% of those tested had a hit in this group.
